High-throughput results: PubChem, National Center for Advancing Translational Sciences (NCATS)
RE007 growth inh: less growth of the S. pombe RE007 Vpr strain; S. pombe RE007 Vpr strain, BacTiter-Glo ATP luminescence, 24 h; control for the full effect not named in the record; Potency, µM (top dose mostly 92.2 µM), without a hit: top-dose activity change, negative = less growth; 360,000 compounds, 0.21% hits; active = well fitted falling curve with a large enough effect; inconclusive = small, poorly fitted or top-dose-only effect; inactive = no such curve, though single readings can be large or run the other way;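 also: % is scaled to controls: 0 for no effect and ±100 for the full control effect; nearly all actives have a fitted effect of over 50% in size; the assay follows cell death caused by Vpr and the record does not say whether a fall means rescue or toxicity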
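Fission yeast strain RE007, carrying one chromosomally integrated HIV-1 vpr copy, was seeded at OD 0.01 in PMG+AL medium with 23 nL pinned compound. After 24 h at 30 °C and 99% humidity, viability was read by BacTiter-Glo luminescence.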
Cruzain noTriton: inhibitors of Trypanosoma cruzi cruzain without detergent. 200,000 compounds, 2.3% hits. P25779. purified cruzain, Z-FR-AMC fluorescence, no detergent. Potency, µM, for the others: max response, negative = inhibition, actives largely listed as inhibitors. AID 1476;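 also: plate controls were enzyme without inhibitor for no effect and buffer without enzyme for full effect; nearly all actives have a fitted effect of over 40% in size; top concentration of the series not given in the record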
Target sequence (P25779 123-467 limits assumed): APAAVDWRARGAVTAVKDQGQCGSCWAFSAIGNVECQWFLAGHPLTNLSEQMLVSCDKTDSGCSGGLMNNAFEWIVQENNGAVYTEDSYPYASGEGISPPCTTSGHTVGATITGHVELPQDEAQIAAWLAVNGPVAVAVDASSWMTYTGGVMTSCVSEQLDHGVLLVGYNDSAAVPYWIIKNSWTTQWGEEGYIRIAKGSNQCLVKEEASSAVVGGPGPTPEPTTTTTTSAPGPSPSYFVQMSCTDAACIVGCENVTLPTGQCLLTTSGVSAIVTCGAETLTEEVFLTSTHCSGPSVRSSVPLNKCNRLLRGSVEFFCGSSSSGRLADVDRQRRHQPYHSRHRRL
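Detergent-free condition (0.00005% Triton X-100) in acetate buffer pH 5.5 with DTT. 1.5 nM enzyme and compound were pre-mixed 15 min, then 2 uM Z-FR-AMC substrate added; reaction progress from fluorescence change between first and third reads (60 s).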
Cruzain inh Det: inhibitors of Trypanosoma cruzi cruzain with detergent; purified cruzain, Z-FR-AMC fluorescence, 0.01% Triton; Potency, µM, without a hit: max response, negative = inhibition, usual class: inhibitors; 200,000 compounds, 0.43% hits;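 also: plate controls were neutral wells for no effect and buffer without enzyme for full effect; nearly all actives have a fitted effect of over 40% in size; top concentration of the series not given in the record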
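Purified cruzain (1.5 nM final) was preincubated with compounds for 15 min at room temperature in 100 mM sodium acetate pH 5.5, 5 mM DTT, 0.01% Triton X-100. Reaction started with 2 uM Z-FR-AMC; AMC fluorescence change over 60 s gave activity.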
2A StopGo: lowers the luciferase signal of an FMDV 2A StopGo reporter | Potency, µM (titrated, usually from 57.9 µM), for inactives: top-dose signal change, negative = less light | human cells with a luciferase reporter of 2A StopGo recoding; control for the full effect not named in the record | 410,000 compounds, 1.2% hits; active = well fitted falling curve with a large enough effect; inconclusive = small, poorly fitted or top-dose-only effect; inactive = no such curve, though single readings can be large or run the other way; tested in HEK293T cells; also: % is scaled to controls: 0 for no effect and ±100 for the full control effect; nearly all actives have a fitted effect of over 45% in size; luciferase light after 4 h
SARS PLP yeast: inhibitors of SARS-CoV papain-like protease in yeast; S. cerevisiae expressing SARS-CoV PLpro, growth rescue; control for the full effect not named in the record; Potency, µM (doses to about 32.9 µM), for inactives: top-dose activity, positive = growth rescue; 330,000 compounds, 0.19% hits; active means well fitted rising curve with a large enough effect; inconclusive means small, poorly fitted or top-dose-only effect; inactive means no such curve, though single readings can be large or run the other way; also: 0% is about no effect; nearly all actives have a fitted effect of over 55% in size; growth read by luminescence after 48 h
MARV entry inh: Marburg virus entry inhibition | Potency, µM (top dose mostly 37.8 µM), inactives show top-dose activity change, negative = inhibition, most hits filed as inhibitors | 300,000 compounds, 1.8% hits | Marburg virus pseudotyped entry inhibition, cell reporter; control for the full effect not named in the record; about a third of the inactives were read at about 46 µM | AID 540276; active = well fitted inhibition curve with a large enough effect; inconclusive = small, poorly fitted or top-dose-only effect, or effect the other way; inactive = flat fitted curve, though single readings scatter; tested in HEK293 cells; about a fifth of its hits are not listed in these tables; also: % is scaled to controls: 0 for no effect and ±100 for the full control effect; luciferase read-out
LASV entry inh: blocks Lassa virus binding to or entry into cells. Lassa virus pseudotype entry inhibition, cell reporter; control for the full effect not named in the record. Potency, µM (series often up to 37.9 µM), for the others: at the top dose activity change, negative = inhibition, actives largely listed as inhibitors. 300,000 compounds, 1.2% hits; active means well fitted inhibition curve with a large enough effect; inconclusive means small, poorly fitted or top-dose-only effect, or effect the other way; inactive means flat fitted curve, though single readings scatter; tested in HEK293 cells; also: % is scaled to controls: 0 for no effect and ±100 for the full control effect; nearly all actives have a fitted effect of over 50% in size; luciferase read-out
NS1 function inh: inhibitors of influenza NS1 protein function. S. cerevisiae slowed by influenza A NS1, growth recovery by OD600. Potency, µM (titrated, usually from 46.1 µM), inactives show at the highest dose activity, positive = more growth. 270,000 compounds, 0.4% hits. AID 2326; active means well fitted rising curve with a large enough effect; inconclusive means small, poorly fitted or top-dose-only effect; inactive means no such curve, though single readings can be large or run the other way; also: nearly all actives have a fitted effect of over 50% in size
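Recovery from NS1-induced slow growth read by OD600 in budding yeast switched to galactose assay medium (pH 6.0, -URA) at 1:100 dilution. Compound 23 nl per well; the matching strain lacking NS1 serves as control.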
* = called active by the depositor; ? = inconclusive; . = no result given; & = joins results of further samples; [ ] = remark or other dose. Unless noted, calls follow the shape of the dose curve; as a rule, active = well fitted curve in the direction sought with a large enough effect; inconclusive = small, poorly fitted or top-dose-only effect, or another doubt; inactive = no such curve, though single readings can be large; an effect the other way counts as inactive or inconclusive. Potency is read from the fitted curve at half-maximal effect.

Each structure is followed by: Cruzain noTriton	2A StopGo	Cruzain inh Det	SARS PLP yeast	NS1 function inh	RE007 growth inh	MARV entry inh	LASV entry inh
- Cc1ccc(S(=O)(=O)CC(=O)Nc2nc3c(C)cccc3s2)cc1
    25µM*	2%	-4.8%	.	.	.	.	-13%[46.1 µM]
- Cc1nn(-c2ccccc2)c(N)c1C1(O)C(=O)N(C(C)C)c2ccccc21 (stereo not drawn)
    -5%	-18%	-0.9%	9%	15%	-17%	?	10%
- O=C(Nc1ccc(Cl)c(C(F)(F)F)c1)c1ccncc1
    .	-12%	.	-1%	2%	42%	?	?
- O=C1C(=O)N(c2ccccn2)C(c2cccc([N+](=O)[O-])c2)/C1=C(/O)c1ccc(Br)cc1 (stereo not drawn)
    .	-15%	.	-5%	9%	-13%	.	.
- Cc1cc(C)cc(N(CCC#N)C(=O)CSc2nc3ccccc3c(=O)[nH]2)c1
    .	-22%	.	2%	.	2%	10µM*	?
- Cc1c(N(C)CS(=O)(=O)O)c(=O)n(-c2ccccc2)n1C
    0%&-1%	-26%&15%	5.3%&1.3%	.	.	0%	.	.
- CN(C)CCCNC(=O)/C(=N\O)c1ccccc1
    4%	0%	4.5%	3%	8%	22%	13%	0%
- CCOC(=O)N1CCN(C(=O)CCn2c(=O)[nH]c3ccsc3c2=O)CC1
    .	3%	.	-2%	.	-11%	19%[46.1 µM]	0%[46.1 µM]
- Cc1c(C(=O)N2CCN(c3ccccc3)CC2)oc2c1C(=O)CC(C)(C)C2
    .	-29%	.	-4%	-3%	-12%	-17%	-23%
- CCOc1ccc(-c2ccc(SCc3ccccn3)nn2)cc1
    .	-21%	.	-3%	.	17%	?	4%
- COC(=O)c1sc2cccc(F)c2c1S(=O)(=O)Nc1cc(OC)cc(OC)c1
    14%	0%	-4.9%	.	.	.	.	3%[46.1 µM]
- CCCc1cc(=O)n2[nH]c(-c3ccc(OC)cc3)nc2n1
    0%	4%	1.8%	13%	-5%	-4%	4%	2%
- Cc1cccc(C(=O)Nc2ccc(S(=O)(=O)N(Cc3ccccc3)c3ccccc3)cc2)c1
    ?	-30%	-2.3%	.	.	.	?	?
- O=C(c1ccco1)N1CCN(c2nc3ccsc3c(=O)s2)CC1
    7%	12%	-9.3%	-2%	-8%	0%	.	.
- CC1CCC2(CC1)NC(=O)N(CC(=O)Nc1nc(-c3ccc(F)cc3)cs1)C2=O (stereo not drawn)
    25µM*	13%	6.2%	?	13%	1%	13%&13%	-5%

Compounds from the list above that contain fluorine (three):
Each structure is followed by: Cruzain noTriton	2A StopGo	Cruzain inh Det	SARS PLP yeast	NS1 function inh	RE007 growth inh	MARV entry inh	LASV entry inh
- O=C(Nc1ccc(Cl)c(C(F)(F)F)c1)c1ccncc1
    .	-12%	.	-1%	2%	42%	?	?
- COC(=O)c1sc2cccc(F)c2c1S(=O)(=O)Nc1cc(OC)cc(OC)c1
    14%	0%	-4.9%	.	.	.	.	3%[46.1 µM]
- CC1CCC2(CC1)NC(=O)N(CC(=O)Nc1nc(-c3ccc(F)cc3)cs1)C2=O (stereo not drawn)
    25µM*	13%	6.2%	?	13%	1%	13%&13%	-5%

Later entries.
Each structure is followed by: Cruzain noTriton	2A StopGo	Cruzain inh Det	SARS PLP yeast	NS1 function inh	RE007 growth inh	MARV entry inh	LASV entry inh
- Cc1cc(C)cc(SCc2noc(C(=O)NCc3ccccc3)c2C(=O)NCc2ccccc2)c1
    .	-8%	.	0%	2%	-4%	.	.
- COc1ccc(CCN2CC(C(=O)O)CC2=O)cc1 (stereo not drawn)
    -13%	39%	7.3%	-1%	-20%	-1%	?	-13%[14.3 µM]
- O=[N+]([O-])c1ccc(N2CCOCC2)cc1NCc1ccccc1
    3%	-26%	-12%	2%	-15%	-8%	4%	-14%
- COc1ccc(F)cc1S(=O)(=O)N1CCCCC1
    .	-11%	.	1%	1%	3%	-6%[46.1 µM]	-1%
- O=C1[C@H]2[C@@H](c3ccc(Cl)cc3)N3C(=O)N(c4cccc(F)c4)C(=O)[C@@]3(Cc3ccc(Cl)cc3)[C@H]2C(=O)N1C1CCCCC1
    .	-20%	.	12%	20%	-21%	.	.
- COc1ccc(C(=O)/C(=C\N(C)C)n2nc(C)cc2C)cc1
    .	-7%	.	0%	2%	-8%	?	?
- CC(=O)Nc1cc(-c2nc3ccccc3o2)ccc1Cl
    .	49%[activator]	.	3%	-4%	0%	.	.
- CN1CCCN(C(=O)c2ccc(Cl)c(S(=O)(=O)N(C)c3ccccc3)c2)CC1
    -1%	.	1.9%	1%	-10%	8%	2%&-16%	3%
- COc1ccccc1OCCCCn1c(C2CC(=O)N(c3ccccc3Cl)C2)nc2ccccc21 (stereo not drawn)
    ?	-4%	-12%	.	.	.	?	?
- CCc1ccc(S(=O)(=O)Nc2ccc(-c3nc4cccnc4s3)cc2)s1
    4%	109%[activator]	-11%	-4%	1%	4%	.	.
- CC1(C)CC(=O)c2sc(NC(=O)CN3CCOCC3)nc2C1
    1%	-8%	0.5%	1%	2%	-8%	0%	-10%
- COc1cccc(-c2nc(SCC(=O)Nc3ccc4c(c3)OCCO4)c(-c3ccccc3)[nH]2)c1
    ?	-8%	-5.0%	.	.	.	?	?
- Cc1cc(Cl)ccc1NC(=O)C1CCN(S(C)(=O)=O)CC1
    .	-18%	.	1%	2%	6%	?	-1%[46.1 µM]
- Cn1c(=O)[nH]c(=O)c2c1nc(NCc1ccco1)n2CCCc1ccccc1
    ?	-19%	6.0%	1%	-9%	2%	-12%&-12%	4%
- Cc1cc(NC(=O)CSc2nnc(C3CC3)n2-c2ccccc2)no1
    .	-16%	.	0%	-5%	3%	?	-18%
- CCOC(=O)C(C(=O)OCC)C(c1ccccc1)N1CCN(c2ccccc2)CC1 (stereo not drawn)
    .	-43%	.	.	.	11%	6%[46.1 µM]	-7%[46.1 µM]
- CC(=O)c1ccc(N2CCN(C(=O)Nc3ccc(C)cc3)CC2)cc1
    11%	?	-12%	0%	.	29%	5%&5%[46.1 µM]	-2%[46.1 µM]
- CCOc1c(CNCCN2CCOCC2)cccc1OC
    -1%	8%	1.5%	4%	3%	-1%	25%	?
- COc1cc(C(=O)N2CCN(C(=O)C3CC3)CC2)cc(OC)c1OC
    -7%	-14%	7.0%	5%	-6%	-2%	-21%	11%
- O=C(/C=C/c1ccc(Cl)cc1Cl)Nc1ccc(CN2CCOCC2)cc1
    2%	?	-20%	7%	-3%	7%	.	.
- CCc1noc(C)c1C(=O)OCC(=O)Nc1ncc(Cl)cc1Cl
    .	-5%	.	-4%	-2%	3%	-2%	-4%
- COc1ccc(C(CC(=O)N2CCCCC2)c2c(OC)cc(OC)c3ccc(=O)oc23)cc1 (stereo not drawn)
    .	20%	.	-2%	-6%	-10%	.	.
- CC1SC2(NC1=O)C1CC3CC(C1)CC2C3 (stereo not drawn)
    .	-6%	.	2%	.	3%	?	7%[46.1 µM]
- Cc1cccc(NC(=O)C2CCCN(S(=O)(=O)c3cccc4nsnc34)C2)c1 (stereo not drawn)
    -7%	.	-5.7%	12%	7%	-10%	-3%	?
- COc1cccc(CNC(=O)c2ccc3nc(-c4ccc(F)cc4)c(-c4ccc(F)cc4)nc3c2)c1
    -21%	-29%	2.1%	.	.	.	.	?
- CN1CCN(S(=O)(=O)c2cccc(C(=O)Nc3cc(Cl)ccc3N3CCOCC3)c2)CC1
    .	-4%	.	0%	.	16%	1%	2%[46.1 µM]
- COc1cccc2[nH]c(C(=O)NN)c(N)c12
    .	14%	.	0%	0%	1%	23%	-7%
- Cc1cccc(C(=O)N/N=C/c2coc3ccccc3c2=O)c1
    .	-27%	.	1%	-8%	-13%	.	.
- Cc1cc(NC(=O)c2ccc(Cl)cc2)n(CCC#N)n1
    .	10%	.	2%	7%	-2%	2%[46.1 µM]	?
- Cc1ccc(CNC(=O)c2ccc(NC3=NC4CS(=O)(=O)CC4S3)cc2)cc1 (stereo not drawn)
    .	-6%	.	-6%	4%	5%	.	.

In the list so far, 4 have a thiophene ring, fused or not:
Each structure is followed by: Cruzain noTriton	2A StopGo	Cruzain inh Det	SARS PLP yeast	NS1 function inh	RE007 growth inh	MARV entry inh	LASV entry inh
- CCOC(=O)N1CCN(C(=O)CCn2c(=O)[nH]c3ccsc3c2=O)CC1
    .	3%	.	-2%	.	-11%	19%[46.1 µM]	0%[46.1 µM]
- COC(=O)c1sc2cccc(F)c2c1S(=O)(=O)Nc1cc(OC)cc(OC)c1
    14%	0%	-4.9%	.	.	.	.	3%[46.1 µM]
- O=C(c1ccco1)N1CCN(c2nc3ccsc3c(=O)s2)CC1
    7%	12%	-9.3%	-2%	-8%	0%	.	.
- CCc1ccc(S(=O)(=O)Nc2ccc(-c3nc4cccnc4s3)cc2)s1
    4%	109%[activator]	-11%	-4%	1%	4%	.	.

Individual results from the results shown:
Result for CC(=O)c1ccc(N2CCN(C(=O)Nc3ccc(C)cc3)CC2)cc1 under LASV entry inh: -2%[46.1 µM]
Result for CCc1noc(C)c1C(=O)OCC(=O)Nc1ncc(Cl)cc1Cl under SARS PLP yeast: -4%

The list goes on.
Each structure is followed by: Cruzain noTriton	2A StopGo	Cruzain inh Det	SARS PLP yeast	NS1 function inh	RE007 growth inh	MARV entry inh	LASV entry inh
- CN(C)S(=O)(=O)c1cccc(NC(=O)COC(=O)CCC(=O)c2ccc(F)cc2)c1
    10%	25%	-4.3%	6%	-18%	6%	?	8%
- COc1cc(CNc2ccc(N3CCCC3)cc2)ccc1OCc1ccccc1
    -24%	-27%	-4.4%	-18%	-28%	?	.	-27%
- Fc1ccc(NCc2ccccc2F)cc1Cl
    -15%	.	-4.0%	2%	9%	2%	1%&1%	-20%
- C=CCC1CCCC(=O)N2CCCC12 (stereo not drawn)
    -6%	-6%	-2.4%	3%	.	1%	.	.
- COc1ccc(C2c3c(oc4ccc(Cl)cc4c3=O)C(=O)N2CCCN(C)C)cc1OC (stereo not drawn)
    -7%	-5%	-0.2%	.	.	.	.	?
